# Screens deposited in PubChem BioAssay by National Center for Advancing Translational Sciences (NCATS).
# RE007 growth inh: less growth of the S. pombe RE007 Vpr strain; AID 651644; Potency, µM (top dose mostly 92.2 µM), for the others: at the top dose activity change, negative = less growth; S. pombe RE007 Vpr strain, BacTiter-Glo ATP luminescence, 24 h; control for the full effect not named in the record; actives 0.21% (n = 360,000); active = well fitted falling curve with a large enough effect; inconclusive = small, poorly fitted or top-dose-only effect; inactive = no such curve, though single readings can be large or run the other way;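 also: % is scaled to controls: 0 for no effect and ±100 for the full control effect; nearly all actives have a fitted effect of over 50% in size; the assay follows cell death caused by Vpr and the record does not say whether a fall means rescue or toxicity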
#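 Fission yeast strain RE007, carrying one chromosomally integrated HIV-1 vpr copy, was seeded at OD 0.01 in PMG+AL medium with 23 nL pinned compound. After 24 h at 30 °C and 99% humidity, viability was read by BacTiter-Glo luminescence.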
# SARS PLpro yeast: inhibitors of SARS-CoV papain-like protease in yeast | S. cerevisiae expressing SARS-CoV PLpro, growth rescue; control for the full effect not named in the record | Potency, µM (doses to about 32.9 µM), for the others: at the highest dose activity, positive = growth rescue | actives 0.19% (n = 330,000) | AID 485353; active means well fitted rising curve with a large enough effect; inconclusive means small, poorly fitted or top-dose-only effect; inactive means no such curve, though single readings can be large or run the other way; also: 0% is about no effect; nearly all actives have a fitted effect of over 55% in size; growth read by luminescence after 48 h
# 2A StopGo: FMDV 2A StopGo reporter, luciferase signal | human cells with a luciferase reporter of 2A StopGo recoding; control for the full effect not named in the record | Potency, µM (titrated, usually from 57.9 µM), inactives show at the top dose signal change, negative = less light | actives 1.2% (n = 410,000); active = well fitted falling curve with a large enough effect; inconclusive = small, poorly fitted or top-dose-only effect; inactive = no such curve, though single readings can be large or run the other way; tested in HEK293T cells; also: % is scaled to controls: 0 for no effect and ±100 for the full control effect; nearly all actives have a fitted effect of over 45% in size; luciferase light after 4 h
# Starred values were filed as active, the others as inactive; u = inconclusive; [ ] = remark or other dose. Potency is read from the fitted curve at half-maximal effect. These rows are one share of the data; rates above refer to the full screens.
Molecule	RE007 growth inh	SARS PLpro yeast	2A StopGo
CCCc1ccc(C(=O)CN2C(=O)C(=O)N(C3CCCC3)C2=O)cc1	-2.5%	-3.1%	-15.1%
C=CC[C@@H](CC(=O)N[C@H](CO)Cc1ccccc1)C(=O)NC[C@H](OC(=O)[C@@H](CC=C)Cc1ccc(F)cc1)c1ccccc1	-7.9%	2.1%	-18.9%
C#CCOCCOCCOCCNc1nc(N2CCOCC2)nc(N2CCN(C(=O)[C@H](CC(N)=O)n3cc([C@@H](N)C(C)C)nn3)CC2)n1	6.3%	-0.2%	-13.7%
COC(=O)C1=C(c2cccc3c2S(=O)(=O)c2ccccc2-3)C[C@@H]2CC[C@H]1N2C(=O)N1CCOCC1	-4.9%	8.2%	-10.1%
O=C(O)CCCc1ccc2c(c1)CCc1ccccc1-2	-20.7%	-3.9%	u
CCCC[C@@H]1C=C(C(=O)O)[C@H](c2ccc(Cl)cc2)N1S(=O)(=O)c1ccc(C)cc1	5.0%	0.5%	-1.9%
COc1cc([C@@H]2CC=C(C(=O)O)[C@H](c3cccc(Cl)c3)N2S(=O)(=O)c2ccc(C)cc2)cc(OC)c1OC	3.0%	1.8%	22.7%
Cc1ccc(S(=O)(=O)N2CCN(C(=O)c3ccccc3)C2)cc1[N+](=O)[O-]	-2.5%	0.3%	3.6%
Cc1cccc(NC(=O)c2nc[nH]c2C(=O)N2CCN(c3ccccc3)CC2)c1	-5.5%	-5.3%	13.6%
CCCc1cc(=O)[nH]c(SC(C)C(=O)Nc2ccc3c(c2)OCCO3)n1 (stereo not drawn)	-1.8%	0.3%	-2.2%
O=C(CSc1nnc(-c2ccncc2)o1)Nc1ccc(F)c(F)c1	2.6%	3.0%	-15.1%
CC(=O)c1sc(NC(=O)c2oc3ccc(F)cc3c2C)nc1C	2.3%	4.7%	63.5%[activator]
Cc1nn(-c2ccccc2)c(N)c1N=Nc1cccnc1	-17.9%	0.5%	87.9%[activator]
C[C@H](NC(=O)c1nc[nH]c1C(=O)NCc1ccc(CNC(=O)OC(C)(C)C)cc1)c1ccccc1	5.6%	-0.6%	31.6µM*
Cc1noc(C)c1C(=O)Nc1cccc(S(=O)(=O)N2CCCCC2)c1	14.4%	-0.6%	-26.5%
COc1ccc(CNC(=O)C(C)N2C(=O)NC(c3ccccc3)(c3ccccc3)C2=O)cc1 (stereo not drawn)	-5.0%	7.6%	0.0%
CCN1C(=O)[C@H]2[C@@H](c3ccc(-c4ccc(Cl)c(Cl)c4)c(OC)c3)N[C@@](C)(C(=O)OC)[C@H]2C1=O	-6.8%	-0.4%	u
Cn1c(-c2ccsc2)c(-c2cccs2)c2cc(-c3ccc4cc[nH]c4c3)ccc21	-12.2%	-0.4%	-9.3%
CC(C)N(C(=O)CSc1nnc(NC(=O)Cc2cccs2)s1)C(C)C	11.6%	0.0%	10.4%
Nc1nnc(SCC(=O)NNC(=O)c2ccc(F)cc2)s1	5.9%	6.4%	-8.2%
CCOC(=O)C1=CN(Cc2ccco2)S(=O)(=O)N(C)C1c1ccccc1 (stereo not drawn)	9.5%	-28.8%	21.1%
CCN=C1SC(C(=O)Nc2cccc(Cl)c2)CC(=O)N1CC (stereo not drawn)	-11.0%	-0.4%	-24.4%
COC(=O)C(Cc1ccccc1)NC(=O)c1ccc(NS(=O)(=O)c2ccc3[nH]c(=O)[nH]c3c2)cc1 (stereo not drawn)	3.1%	1.0%	-11.6%
Cc1ccc(C2(c3ccccc3)NC(=O)N(CC(=O)NC3(C#N)CCCC3)C2=O)cc1C (stereo not drawn)	-2.8%	1.7%	-19.3%
CCN(c1ccccc1)S(=O)(=O)c1ccc(C(=O)NCc2ccco2)cc1	11.0%	-0.5%	-23.3%
Cc1ccccc1/C=C/c1cc[n+](C)cc1	-7.5%	-1.2%	-5.7%
COCCn1c(Cc2cccn2C)nnc1SCC(=O)NCc1ccc2c(c1)OCO2	-7.6%	4.2%	18.0%
CCC(C(=O)N1CCN(S(=O)(=O)c2sc(C(=O)O)c(C)c2C(=O)O)CC1)c1ccccc1 (stereo not drawn)	-5.5%	0.8%	4.1%
CC(C)NC(=O)NC(=O)COC(=O)C1(C)CC1(Cl)Cl (stereo not drawn)	16.7%	1.0%	-4.9%
CC1CCCN(CC(=O)NC(=O)NC2CCCCC2)C1 (stereo not drawn)	-1.5%	-1.4%	18.5%
COC(=O)c1ccc(C)c(NC(=O)C2CC(=O)N(C3CCCC(C)C3C)C2)c1 (stereo not drawn)	-11.2%	0.5%[6.58 µM]	u
C[C@H]1CN([C@@H](C)CO)C(=O)c2cccc(NC(=O)Nc3ccc(C(F)(F)F)cc3)c2O[C@@H]1CN(C)S(=O)(=O)c1ccccc1	-17.2%	1.9%	u
O=C(COC(=O)Cc1ccsc1)Nc1cccc(Cl)c1	-1.6%	-0.8%	-8.0%
Cc1noc(C)c1NC(=O)Nc1cccc2c1O[C@@H](CN(C)Cc1ccc3c(c1)OCO3)[C@@H](C)CN([C@H](C)CO)C2=O	30.2%	8.6%	50.7%[activator]
CCC(CO)Oc1cc(NCc2ccccc2C(F)(F)F)c2ncn(C(C)C)c2c1 (stereo not drawn)	-8.7%	-0.2%	-21.5%
COC(=O)[C@]1(C)CCC[C@@]2(C)C3CC[C@@]4(C)C[C@]3(CCC21)CC(=O)N4Cc1ccc(OC)cc1 (stereo partly drawn)	4.8%	-0.1%	u

# Other results follow.
smiles,RE007 growth inh,SARS PLpro yeast,2A StopGo
COc1ccc(CNC(=O)c2ccc(S(=O)(=O)NCc3ccco3)cc2)cc1,4.2%,0.2%,7.0%
COc1ccc(CC(=O)Nc2ccc(S(=O)(=O)N3CCCC3)cc2)c(OC)c1,-8.0%,0.7%,2.8%
CCOc1ccc(CCNC(=O)COC(=O)c2cccc(OC)c2O)cc1OCC,6.2%,0.6%,-7.6%
O=C(Nc1ccc(F)cc1)C(c1ccccc1)N1CCN(CC(=O)N2CCOCC2)CC1 (stereo not drawn),-0.9%,0.5%[6.58 µM],17.3%
CN(C)S(=O)(=O)c1cccc(NC(=O)CN2C(=O)NC(Cc3ccccc3)C2=O)c1 (stereo not drawn),-12.2%,-7.6%,-3.7%
O=C(N[C@@H]1C/C=C\C[C@H](CC(=O)N(CCO)Cc2ccccc2)C(=O)N[C@@H](Cc2c[nH]c3ccccc23)COC1=O)OCC1c2ccccc2-c2ccccc21,5.0%,0.8%,-17.6%
COc1ccc(NC(=O)CNc2cccc(S(=O)(=O)N3CCCCCC3)c2)c([N+](=O)[O-])c1,3.7%,0.1%,u
CC(=O)c1ccccc1NC(=O)COC(=O)CCC1CCCC1,-10.0%,-8.3%,-6.4%
COc1cc(NC(=O)[C@H]2CCCN2S(=O)(=O)c2cccc3cccnc23)cc(OC)c1OC,4.6%,2.5%,1.4%
S=C(NCCc1ccccc1)Nc1cnc2ccccc2c1,-2.4%,-1.5%,80.9%[activator]
COCCN(CC(=O)Nc1ccccc1C(F)(F)F)C(=O)c1ccc(-n2cccn2)cc1,1.2%,-0.2%,-2.8%
Cc1c(NC(=O)c2cccc(NC(=O)Cc3ccc(Cl)cc3)c2)c(=O)n(-c2ccccc2)n1C,u,3.1%,0.0%
COc1ccc(-c2nn(Cc3ccccc3)cc2C(=O)N2CCN(c3ncccn3)CC2)cc1OC,-1.6%,1.8%,17.9%
NS(=O)(=O)c1ccc(NC(=O)COC(=O)CCc2nc3ccccc3c(=O)[nH]2)cc1,7.6%,-9.2%,-9.0%
COC(=O)[C@]1(C)N[C@H](CN(C)C(=O)COc2ccccc2)[C@@H]2C(=O)N(C)C(=O)[C@@H]21,4.2%,-0.3%,-8.1%
CCN(c1ccccc1)S(=O)(=O)c1ccc(C(=O)NNC(=O)c2ccccc2F)cc1,-14.9%,3.1%,-0.6%
CC(O)[C@H]1CNCCN1CCc1cccc(F)c1 (stereo partly drawn),4.6%,-3.3%,-11.4%
O=C(COC(=O)c1ccc(F)c(S(=O)(=O)N2CCOCC2)c1)NCc1ccc(Cl)cc1,3.1%,2.0%,-18.1%
C[C@H](CO)N1C[C@H](C)[C@@H](CN(C)S(=O)(=O)c2cccs2)Oc2c(NC(=O)C3CC3)cccc2C1=O,-27.9%,2.6%,9.5%
CCOC(=O)c1cc(C(C)=O)c(=O)[nH]c1C,-5.5%,0.7%,-18.2%
COCCS(=O)(=O)N(Cc1ccc(Br)cc1)[C@@H](C)C(=O)OC,-14.3%,13.2%,-28.5%
CCN(C(=O)COC(=O)c1cnc(C)cn1)c1c(N)n(Cc2ccccc2)c(=O)[nH]c1=O,3.6%,-10.3%,4.0%
Cc1c(C2(O)CCCCC2)[nH]c2cnccc12,4.5%,2.5%,-18.6%
Cc1ccc(C(=O)c2ccccc2C(=O)Nc2ccccc2)cc1,5.6%,1.9%,-18.2%
Cc1ccc(C)c(C(=O)CCC(=O)N2CCN(c3cccc(C(F)(F)F)c3)CC2)c1,-0.3%,10.0%,u
Cc1cc(C)cc(NC(=O)COC(=O)c2ccc(CN3CCCC3=O)cc2)c1,-1.3%,-7.6%,-9.5%
COc1ccc(/C=C/C(=O)OCC(=O)NC2CCS(=O)(=O)C2)cc1 (stereo not drawn),-4.9%,-4.5%,-4.8%
O=C(Cc1c(F)cccc1Cl)Nc1cc(S(=O)(=O)N2CCOCC2)ccc1N1CCCC1,9.7%,1.0%,5.1%
COc1cccc(NC(=O)CN(C)C(=O)c2cc(C3CC3)nn2-c2ccccc2)c1,-3.5%,-7.7%,-1.6%
COc1cc(-c2ccc3sc(-c4ccsc4)c(C#CCO)c3c2)cc(OC)c1OC,-3.0%,-0.8%,-26.6%

# Some of these compounds in order of length of the SMILES, ascending:
smiles,RE007 growth inh,SARS PLpro yeast,2A StopGo
Cc1c(C2(O)CCCCC2)[nH]c2cnccc12,4.5%,2.5%,-18.6%
COCCS(=O)(=O)N(Cc1ccc(Br)cc1)[C@@H](C)C(=O)OC,-14.3%,13.2%,-28.5%
Cc1cc(C)cc(NC(=O)COC(=O)c2ccc(CN3CCCC3=O)cc2)c1,-1.3%,-7.6%,-9.5%
COc1cccc(NC(=O)CN(C)C(=O)c2cc(C3CC3)nn2-c2ccccc2)c1,-3.5%,-7.7%,-1.6%
O=C(Cc1c(F)cccc1Cl)Nc1cc(S(=O)(=O)N2CCOCC2)ccc1N1CCCC1,9.7%,1.0%,5.1%

# New compounds follow.
smiles,RE007 growth inh,SARS PLpro yeast,2A StopGo
N#Cc1ccccc1S(=O)(=O)N1CCN(CC(O)CN2CCOCC2)CC1 (stereo not drawn),5.5%,-0.2%,-16.5%
CC(C)(C)OC(=O)N[C@H]1C=C[C@H](OC(=O)CC(=O)OCC(F)(F)F)C1,-3.6%,-12.2%,-4.6%
C(=N\Nc1nc(Nc2ccccc2)nc(Nc2ccccc2)n1)/c1cccnc1,-1.2%,-0.9%,-12.9%
CCOC(=O)C1CCN(C(=O)COC(=O)c2cccc(F)c2)CC1,-7.8%,0.3%,33.3%[activator]
Cc1ccc(N(C(=O)c2ccc(S(=O)(=O)N3CCOCC3)cc2)C2C=CS(=O)(=O)C2)cc1C (stereo not drawn),2.3%,-0.1%,-8.5%
CCOc1ccccc1OCCCC(=O)ON=C(N)c1ccccc1,-17.0%,6.2%,1.5%
C=C1[C@@H](O)[C@@H]2O[C@]3(CC[C@H](/C=C/[C@@H](C)[C@@H]4CC(C)=CC5(O[C@H](C[C@@](C)(O)C(=O)OC)CC[C@H]5O)O4)O3)CC[C@H]2O[C@@H]1[C@@H](O)C[C@H](C)[C@H]1OC2(CCCCO2)CC[C@H]1C (stereo partly drawn),0.7%,-5.0%,10.1%
C=CCC[C@@H](Cc1ccc(F)cc1)C(=O)OC[C@H](Cc1c[nH]c2ccccc12)NC(=O)[C@H](CC=C)CC(=O)NCCO,-9.6%,-17.4%,u
Cc1ccc(S(=O)(=O)N2CCN(C)CC2c2ccccc2)cc1 (stereo not drawn),20.2%,7.7%,-6.0%
Nc1ncnc2c1ncn2[C@@H]1O[C@H](CNC(=O)[C@@H](N)COCc2ccccc2)[C@@H](O)[C@H]1O,-26.2%,2.5%,0.0%
CCc1ccc(OC(=O)Cc2ccc(OC)c(S(=O)(=O)N3CCOCC3)c2)cc1,8.7%,-2.2%,-3.6%
COC(=O)c1ccccc1S(=O)(=O)N1CCC(C(=O)OCC(=O)NC2CCCCC2C)CC1 (stereo not drawn),0.4%,-16.1%,-10.2%
CN(C1CCCC1)C1CCN(C(=O)CNC(=O)/C=C/c2cccc(C(F)(F)F)c2)CC1,6.8%,0.2%,-3.8%
